# Rce1 inhib = blocks yeast Ras-converting enzyme; actives 0.27% (n = 290,000); yeast membranes, quenched prenylated peptide cleavage fluorescence; calls only; AID 2563; Q03530;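 active = fall in fluorescence gain of 50% or more versus controls, with final raw signal at or below 3038400; inconclusive = same 50% fall but final raw signal above 3038400; inactive = fall in fluorescence gain under 50%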;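 also: plate controls were neutral control wells for no effect and wells lacking membranes for full effect; tested at 10 µM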
# Target sequence (Q03530 whole entry, looked up): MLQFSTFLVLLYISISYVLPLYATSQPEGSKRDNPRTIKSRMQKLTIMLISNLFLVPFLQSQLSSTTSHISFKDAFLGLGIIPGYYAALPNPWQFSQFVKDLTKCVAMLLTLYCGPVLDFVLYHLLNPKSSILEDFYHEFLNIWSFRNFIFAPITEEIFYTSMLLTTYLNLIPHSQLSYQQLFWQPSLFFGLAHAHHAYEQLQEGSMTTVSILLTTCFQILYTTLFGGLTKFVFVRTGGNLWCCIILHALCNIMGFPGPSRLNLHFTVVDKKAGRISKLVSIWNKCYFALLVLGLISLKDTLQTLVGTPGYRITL
# CSC inhib = cancer stem cell inhibition; cancer stem cell-like cells viability, luminescence; inhibition, % at 7.5 µM; actives 1.1% (n = 300,000);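 active = mean at 75% or more and at least half the replicates too; inconclusive = mean and replicates disagree; tested in HMLE shEcad cells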;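 also: 0% = median of negative and 100% = median of positive control wells; the first replicate is given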
# MT1-MMP act inh = MT1-MMP (human) activation inhibition; HT1080 RFP-PRO-GFP cells, GFP/RFP ratio fluorescence, overnight; percent of plate control window, DMSO zero; GFP/RFP ratio change, % at 20 µM; actives 0.061% (n = 360,000);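 active = GFP/RFP ratio change of at least 30% with cell ATP level not reduced by more than half and red fluorescence within 50% of control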; also: strong numbers were not always called active
#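 Compound: 20 µM single dose, 1% DMSO / System: HT1080 RFP-PRO-GFP cells / Controls: DMSO and RFP-L50D-GFP cell wells / Read-out basis: GFP/RFP fluorescence ratio / Schedule: overnight compound exposure at 37 °C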
# UUG fidelity = modulators of start codon recognition fidelity in yeast. S. cerevisiae UUG-firefly luciferase reporter, luminescence/redox ratio. activity score, % at 18.7 µM. actives 0.13% (n = 350,000);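 active = replicate mean at a twofold rise or more, about +100% in these data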;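 also: firefly luciferase made from a UUG start codon reports start codon fidelity; reporter light over untreated wells divided by growth signal over untreated wells; some hits fall short of that in this replicate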
# eIF4H inh = inhibitors of RNA binding by human eIF4H | Q15056 | eIF4H fluorescence polarization binding assay | inhibition, % at 35 µM | actives 0.94% (n = 290,000) | AID 2012;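 active = 50% or more with normal probe brightness, or confirmed in later tests; inconclusive = above 50% with abnormal brightness, or retests that disagree; inactive = below 50% or failed in later tests; about a fifth of its hits are not listed in these tables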;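 also: calls also rest on retests at 20 µM and on dose response follow-up; 0% = protein and probe with vehicle and 100% = probe without protein; strong numbers were not always called active; many hits fall short of the cut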
# HIV Env fusion = HIV envelope-mediated fusion inhibition; AID 651610; HeLa-JRFL Env/CEM21 cell fusion, luciferase; actives 1.1% (n = 360,000); inhibition, % at 12.3 µM;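 active = mean replicate inhibition score of at least 50 and every replicate individually at or above 50; inconclusive = only one of the two criteria met; inactive = mean below 50 and not all replicates reaching 50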;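 also: 0% = plate neutral controls and 100% = maraviroc near 300 nM; one replicate is shown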
# PABP FP inh = blocks human PABP binding to poly(A) RNA. inhibition, % at 35 µM. fluorescence polarization. P11940. actives 1% (n = 290,000);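 active = 50% or more with normal probe brightness, or confirmed in later tests; inconclusive = above 50% with abnormal brightness, or retests that disagree; inactive = below 50% or failed in later tests; about a fifth of its hits are not listed in these tables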;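 also: calls also rest on retests at 20 µM and on dose response follow-up; controls were probe without protein and protein plus probe with vehicle; some compounds called inactive have numbers as strong as hits; many hits fall short of the cut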
# MT1-MMP act inh RFP = also measured in MT1-MMP act inh; calls as there; RFP signal change, %; measured here: RFP expression control read;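 0 = vehicle wells; hits needed this value within 50% of zero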
# Numbers without * were called inactive; i = inactive; ? = inconclusive; . = no result given. A portion of the library (hit frequency here may not be typical).
# Preview, 13 compounds:
cpd | Structure | Rce1 inhib | CSC inhib | MT1-MMP act inh | MT1-MMP act inh RFP
1 | CCn1c(CNc2nc(-c3ccccc3)cs2)nnc1SCC(=O)NCc1ccccc1 | i | -10 | -4 | 1
2 | CC1=C(C(=O)OCc2ccccc2)C(c2ccc(Cl)cc2)NC(=O)N1CCCC(=O)O (stereo unspecified) | i | -2 | . | .
3 | Cc1nc(CNC(=O)c2cc(COc3ccc(F)cc3Cl)on2)cs1 | i | 5 | 1 | -11
4 | CN(C)c1ccc(/C=N/NC(=O)c2ccc3nc[nH]c3c2)cc1 | i | -17 | 5 | 3
5 | Cc1nc2ccc(NC(=O)N(C)c3ccccc3)cc2s1 | . | -5 | -1 | -6
6 | COc1ccc(F)cc1COc1nc(C)nc2ccccc12 | . | 5 | -1 | -4
7 | CCc1nc2ccc(C(=O)NCc3ccc4c(c3)OCO4)cn2c1N(C)C(=O)Cc1ccccc1 | . | . | -4 | 1
8 | COc1ccc(/C=N/NC(=O)c2ccn[nH]2)cc1COc1ccc(F)cc1 | i | 3 | 4 | -2
9 | CCC(C)NC(=O)c1ccccc1NC(=O)COc1ccc(OC)cc1 (stereo unspecified) | i | . | -2 | 0
10 | CC(C)OC(=O)CSc1nnc(-c2ccc(O)cc2)n1Cc1ccccc1 | i | 4 | 4 | 10
11 | CC(=O)c1cc(NC(=O)c2ccc(C)cc2)c(=O)oc1/C=C/N(C)C | i | -14 | -25 | 10
12 | CCCN(CCC)C(=O)Cn1c(=O)n(CCCCCC(=O)Nc2ccccc2)c(=O)c2sccc21 | i | -40 | 1 | 1
13 | Cc1ccc(C(=O)N2CCC3(CC2)Oc2ccc(F)cc2C(=O)C32CC(c3cccnc3)=NO2)s1 (stereo unspecified) | i | 9 | -5 | -4

cpd | UUG fidelity | eIF4H inh | HIV Env fusion | PABP FP inh
1 | -15 | -4 | 26 | -2
2 | . | 5 | -26 | 12
3 | . | -8 | 20 | -10
4 | . | -14 | 18 | -8
5 | . | -7 | -32 | 4
6 | -5 | -6 | -11 | -11
7 | -6 | . | -60 | .
8 | -16 | -1 | -152 | -17
9 | -8 | -1 | -26 | -3
10 | . | 5 | -30 | 3
11 | -16 | ? | . | 2
12 | . | -4 | 5 | -20
13 | -16 | -14 | 19 | 6

# The list itself, from the start:
cpd | Structure | Rce1 inhib | CSC inhib | MT1-MMP act inh | MT1-MMP act inh RFP
1 | CCn1c(CNc2nc(-c3ccccc3)cs2)nnc1SCC(=O)NCc1ccccc1 | i | -10 | -4 | 1
2 | CC1=C(C(=O)OCc2ccccc2)C(c2ccc(Cl)cc2)NC(=O)N1CCCC(=O)O (stereo unspecified) | i | -2 | . | .
3 | Cc1nc(CNC(=O)c2cc(COc3ccc(F)cc3Cl)on2)cs1 | i | 5 | 1 | -11
4 | CN(C)c1ccc(/C=N/NC(=O)c2ccc3nc[nH]c3c2)cc1 | i | -17 | 5 | 3
5 | Cc1nc2ccc(NC(=O)N(C)c3ccccc3)cc2s1 | . | -5 | -1 | -6
6 | COc1ccc(F)cc1COc1nc(C)nc2ccccc12 | . | 5 | -1 | -4
7 | CCc1nc2ccc(C(=O)NCc3ccc4c(c3)OCO4)cn2c1N(C)C(=O)Cc1ccccc1 | . | . | -4 | 1
8 | COc1ccc(/C=N/NC(=O)c2ccn[nH]2)cc1COc1ccc(F)cc1 | i | 3 | 4 | -2
9 | CCC(C)NC(=O)c1ccccc1NC(=O)COc1ccc(OC)cc1 (stereo unspecified) | i | . | -2 | 0
10 | CC(C)OC(=O)CSc1nnc(-c2ccc(O)cc2)n1Cc1ccccc1 | i | 4 | 4 | 10
11 | CC(=O)c1cc(NC(=O)c2ccc(C)cc2)c(=O)oc1/C=C/N(C)C | i | -14 | -25 | 10
12 | CCCN(CCC)C(=O)Cn1c(=O)n(CCCCCC(=O)Nc2ccccc2)c(=O)c2sccc21 | i | -40 | 1 | 1

cpd | UUG fidelity | eIF4H inh | HIV Env fusion | PABP FP inh
1 | -15 | -4 | 26 | -2
2 | . | 5 | -26 | 12
3 | . | -8 | 20 | -10
4 | . | -14 | 18 | -8
5 | . | -7 | -32 | 4
6 | -5 | -6 | -11 | -11
7 | -6 | . | -60 | .
8 | -16 | -1 | -152 | -17
9 | -8 | -1 | -26 | -3
10 | . | 5 | -30 | 3
11 | -16 | ? | . | 2
12 | . | -4 | 5 | -20

# The listing continues.
cpd | Structure | Rce1 inhib | CSC inhib | MT1-MMP act inh | MT1-MMP act inh RFP
13 | Cc1ccc(C(=O)N2CCC3(CC2)Oc2ccc(F)cc2C(=O)C32CC(c3cccnc3)=NO2)s1 (stereo unspecified) | i | 9 | -5 | -4
14 | CCCNC(=O)C1(C)CCCN(Cc2ccc(-n3ccnc3)cc2)C1 (stereo unspecified) | . | . | 3 | -1
15 | COc1ccccc1CC(=O)NNC(=O)c1cccs1 | i | -8 | -4 | 1
16 | COc1ccc(CCNC(=O)CC(=O)N/N=C\c2ccc(OCC(N)=O)cc2)cc1OC | . | . | 0 | -3
17 | CCOC(=O)CC1CCCCN1C(=O)c1cc(COc2cccc3cnccc23)on1 (stereo unspecified) | i | 9 | -5 | -34
18 | Cc1ccc(-n2nc(C)c(NC(=O)CCl)c2C)cc1C | i | 12 | 5 | 5
19 | COc1ccc(F)cc1S(=O)(=O)NCC(=O)NCc1cc(=O)n(C)c(=O)n1C | i | -6 | -1 | -4
20 | NS(=O)(=O)c1ccc(CCNC(=O)NC23CC4CC(CC(C4)C2)C3)cc1 | i | -10 | 2 | 3
21 | COC(=O)c1sccc1NC(=S)Nc1cc(OC)ccc1OC | i | -13 | 2 | 2
22 | COc1ccc(CC(=O)Nc2cc(S(=O)(=O)Nc3ccc(OC)cc3)ccc2OC)cc1 | . | 13 | -1 | -19
23 | Cc1ccccc1NC(=O)CN1C(=O)CSc2ccc(S(=O)(=O)N3CCCC3)cc21 | i | -12 | -4 | 3
24 | Cc1sc2nc(SCc3nnc(-c4cccs4)o3)n(C3CCCC3)c(=O)c2c1C | i | 37 | -4 | 0

cpd | UUG fidelity | eIF4H inh | HIV Env fusion | PABP FP inh
13 | -16 | -14 | 19 | 6
14 | 8 | . | -10 | .
15 | -11 | 3 | 6 | 6
16 | -10 | . | 16 | .
17 | -19 | 3 | 26 | -10
18 | -14 | -7 | -117 | 2
19 | -21 | -2 | 1 | 3
20 | . | -4 | 12 | -7
21 | . | 10 | 13 | -2
22 | -15 | . | -1 | .
23 | -31 | -4 | 7 | -12
24 | -14 | 0 | 11 | -8

# Next results follow:
cpd | Structure | Rce1 inhib | CSC inhib | MT1-MMP act inh | MT1-MMP act inh RFP
25 | O=C1CSc2ccc(C(=O)NCc3ccccn3)cc2N1 | . | -3 | 2 | 1
26 | CCn1c2ccc(C)cc2c2n[nH]c(=S)nc21 | i | -19 | . | .
27 | O=C(OCC(=O)N1CCN(c2ccccc2)CC1)c1ccc(Cl)nc1 | i | -6 | 6 | 2
28 | COc1cc(OC)cc(-c2nnc(SCC(=O)Nc3cccc(C(=O)O)c3)s2)c1 | i | . | -2 | 2
29 | CCc1ccc(NC(=O)CC2C(=O)N(c3cccc(C)c3)C(=O)N2C2CC2)cc1 (stereo unspecified) | i | -9 | 2 | -3
30 | CCn1c(-c2cccn(Cc3ccccc3)c2=O)n[nH]c1=S | i | -8 | 2 | 8
31 | CCN1C(=O)[C@H]2[C@@H](c3ccc(OC)cc3)N3C(=O)CN(CCOC)C(=O)[C@@]3(Cc3ccccc3)[C@H]2C1=O | i | -20 | 14 | 2
32 | O=[N+]([O-])c1cc(Br)cc(C=Nc2ccc3c(c2)OCO3)c1O | i | 18 | -4 | 0

cpd | UUG fidelity | eIF4H inh | HIV Env fusion | PABP FP inh
25 | -9 | . | 8 | .
26 | -14 | 1 | 16 | 18
27 | 18 | . | . | .
28 | . | 3 | -13 | 45
29 | 5 | 4 | 8 | 3
30 | . | 1 | -10 | -2
31 | 11 | 7 | 7 | 1
32 | -6 | 69* | -1 | 56*
